# GALR2 agonist: GALR2 (human) receptor agonism | GALR2-expressing cells, agonist activation read-out | activation, %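 (tested at 5 µM)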 | 0.48% of 140,000 active | AID 803;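 active = above mean plus 3 SD of all compounds, about 5% in these data, not always enough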;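 note: 0% = vehicle buffer wells and 100% = reference agonist at full effect; tested in CHO reporter cells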
# HSV augment: increases HSV replication in cells. HSV replication augmentation in cells, fold increase. 0.005% of 220,000 active. maximum fold increase. AID 1956;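 active = peak rise of 1.5-fold or more in the series; tested in PC3 cells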;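 note: first round at 10 µM; read as green reporter fluorescence; hits show the peak of a series up to 25 µM; 1 = signal of infected wells without compound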
# PKD1 inh: PKD1 (human) kinase inhibition. AID 797. PKD1 kinase fluorescence polarization assay. inhibition, %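 (about 10 µM by stock and volumes)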. 0.056% of 200,000 active;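 active = inhibition of 50% or more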;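 note: controls were vehicle for no effect and a reference inhibitor for full effect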
# Target sequence (Q15139 whole entry, looked up): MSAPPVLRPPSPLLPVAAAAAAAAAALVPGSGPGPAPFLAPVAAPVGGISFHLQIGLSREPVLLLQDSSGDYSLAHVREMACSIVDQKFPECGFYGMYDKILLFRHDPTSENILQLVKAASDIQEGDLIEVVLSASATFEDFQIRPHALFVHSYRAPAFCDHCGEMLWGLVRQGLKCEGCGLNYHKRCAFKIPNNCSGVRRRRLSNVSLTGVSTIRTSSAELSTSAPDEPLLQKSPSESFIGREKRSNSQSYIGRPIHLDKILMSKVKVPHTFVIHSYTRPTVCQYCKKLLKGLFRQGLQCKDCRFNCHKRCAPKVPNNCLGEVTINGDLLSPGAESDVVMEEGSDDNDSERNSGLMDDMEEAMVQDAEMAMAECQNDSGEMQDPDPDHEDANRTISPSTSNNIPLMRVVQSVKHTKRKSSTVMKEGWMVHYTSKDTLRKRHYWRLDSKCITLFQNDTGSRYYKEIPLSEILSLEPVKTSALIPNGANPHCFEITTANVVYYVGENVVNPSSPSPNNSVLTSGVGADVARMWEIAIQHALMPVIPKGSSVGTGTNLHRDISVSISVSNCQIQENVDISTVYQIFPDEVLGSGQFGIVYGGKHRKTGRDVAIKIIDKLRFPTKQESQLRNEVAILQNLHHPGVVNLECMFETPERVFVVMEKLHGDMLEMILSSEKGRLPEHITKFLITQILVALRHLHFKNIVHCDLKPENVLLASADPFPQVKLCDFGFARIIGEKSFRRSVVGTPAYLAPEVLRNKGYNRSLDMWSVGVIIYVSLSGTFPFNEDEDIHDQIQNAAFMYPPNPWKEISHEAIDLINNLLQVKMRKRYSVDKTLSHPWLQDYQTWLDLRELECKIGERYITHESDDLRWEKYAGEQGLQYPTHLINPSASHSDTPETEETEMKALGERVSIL
# Insulin prom inh: TRM-6 insulin promoter activity inhibition; TRM-6 cells (human fetal islet line), insulin promoter-eGFP reporter, imaging; reporter expression induced with tamoxifen; inhibition, % at 2 µM; 0.9% of 130,000 active; AID 1273;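 active = inhibition above the mean plus 3 SD, with well images judged a real hit on visual review, cut at about 60% in these data, passing the limit was not always enough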
# RGS16-Gao HTS: modulates binding between human RGS16 and Galphao | O15492+P09471 | AID 1441 | 0.38% of 220,000 active | bead-based flow cytometry RGS16-Galphao binding, fluorescence; actives lie on both sides | binding response (% of control), % at 10 µM;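 active = below 25% or above 175%, edge rows of some plates excepted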;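 note: Galphao activated by GDP with aluminum fluoride before binding; 100% = wells without compound and 0% = beads without RGS; some results beyond the cut were filed as inactive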
# Insulin prom inh cell count: second read-out of Insulin prom inh, no call of its own (marks repeat the call); normalized cell count, %; measured here: cell count, toxicity; reference of the scale not given here;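 cells exposed to compound for 48 h; stained nuclei by imaging scaled within each plate; lower means fewer cells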
# HSV augment primary fold: second read-out of HSV augment, no call of its own (marks repeat the call); fold increase; compound at 10 µM; measured here: primary screen fold increase 10 uM; tested in PC3 cells;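 GFP signal in the first replicate; 1 = infected wells without compound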
# The depositor's hits bear a star; i = inactive; . = not tested or not shown; [ ] = dose if it differs, or a comment. Random draw from the library (roughly 1.3% active in at least one column).
SMILES,GALR2 agonist,HSV augment,HSV augment primary fold,PKD1 inh,Insulin prom inh,Insulin prom inh cell count,RGS16-Gao HTS
CCN1CCCC1CN(Cc1cc2ccc(C)cc2[nH]c1=O)C(=S)Nc1ccc(OC)cc1OC (configuration not stated),-0.5,i,0.91,-2,-42,119,65
Clc1ccc(Cn2cc(/C=N/n3cnnc3)c3ccccc32)c(Cl)c1,-1.4,i,0.83,-10,-500,49,99
Cc1c(CCO)c(=O)n(-c2ccccc2)n1S(=O)(=O)c1ccc([N+](=O)[O-])cc1,.,i,0.94,0,.,.,105
CCc1nn(-c2cc(Oc3ccccc3)nc(-c3ccccc3)n2)c(N)c1C#N,-0.9,i,0.99,7,9,116,106
COc1ccccc1N1CCN(c2nc3ccccc3nc2C(C#N)C(=O)OC(C)C)CC1 (configuration not stated),-1.4,i,1,-5,-21,105,105
Cc1nn(Cc2ccccc2)c(C)c1NC(=O)CSc1nc(-c2ccccc2)nc2c1cnn2-c1ccccc1,-1.2,.,.,-6,-74,34,99
O=C(CN(Cc1ccccc1C(F)(F)F)C(=O)CNC(=O)c1ccco1)NC1CCCC1,-1.1,i,0.88,-15,.,.,106
Cc1ccc(C)c(N(C)C(=O)COc2cc(=O)n(C)c3ccccc23)c1,-1.8,i,1.1,2,.,.,149
CCOC(=O)C1=C(C)NC(=S)NC1c1ccc(C)s1 (configuration not stated),.,i,0.88,4,.,.,97
NC(=O)C1CCN(C(=O)/C=C/c2ccccc2[N+](=O)[O-])CC1,.,i,0.97,.,.,.,99
C=CCn1c(SC)nc2sc3c(c2c1=O)CCc1ccccc1-3,-0.2,i,1,-16,-33,126,96
Cc1ccc(C(=O)NNC(=O)Cn2nnc3ccccc32)cc1,.,i,0.92,.,.,.,100
O=S(=O)(c1ccc(F)cc1)N1CC2CCCN2c2ccc(C(F)(F)F)cc21 (configuration not stated),-1.7,i,0.92,-15,25,120,99
CCCS(=O)(=O)N1CCC(C(=O)NCCCOC)CC1,-1.4,i,0.97,2,.,.,96
O=C(CN1C(=O)NC2(CCCCCCC2)C1=O)N1CCN(C(=O)c2ccco2)CC1,-1.9,i,0.97,6,36,126,199*[activator]
O=C(CSCc1ccccc1)N1CCN(c2ccccc2)CC1,-0.6,i,1.1,-7,-118,184,103
Cc1cc(C)n(C(=O)C2CCCN2S(=O)(=O)c2ccc(Cl)cc2)n1 (configuration not stated),-3.1,.,.,-4,.,.,106
O=C(O)c1nn(-c2ccccc2-c2n[nH]c(=O)[nH]c2=O)c(=O)[nH]c1=O,.,i,0.87,.,.,.,99
O=c1[nH]c2cc(Cl)ccc2n(CCNc2ncc(C(F)(F)F)cc2Cl)c1=O,-1.9,.,.,-1,.,.,96
Cc1cc2nc(CCN(Cc3cccnc3)C(=S)Nc3ccc(F)cc3)[nH]c2cc1C,-1.2,i,0.96,-3,.,.,98
Cc1nnc(SCC2=C(C(=O)O)N3C(=O)C(NC(=O)Cn4nc(C(F)F)c(Cl)c4C)C3SC2)s1 (configuration not stated),.,i,1,-6,-21,37,96
CC[n+]1c(C=C2C=C(C)OC(C)=C2)sc2ccccc21,.,.,.,-5,i,77,129
CC(C)(C)OC(=O)N1CCC[C@H]1c1nnc(SCC(=O)Nc2cccc(Cl)c2)o1,.,i,1,.,.,.,96
O=C(OCc1nnc(-c2ccccc2)o1)c1ccc2c(c1)C(=O)N(CCc1ccccc1)C2=O,-2.1,i,1.1,-4,0,113,99
CCOC(=O)c1sc(C)nc1C1CCN(C(=O)OCC)CC1,-0.6,i,0.9,-4,.,.,94
COc1ccc2[nH]c(=O)c(C(c3nnnn3CC3CCCO3)N3CCCCC3)cc2c1 (configuration not stated),.,i,0.93,-1,0,137,98
COc1cccc(C2N(c3cccc(Cl)c3)C(=O)C3CCCN32)c1OC (configuration not stated),-1.5,i,0.72,-3,.,.,99
CC1(C)CC(N2CCOCC2)=CC(=[N+]2CCOCC2)C1,.,i,0.95,-7,17,125,105
N#Cc1c(-c2ccccc2)nc(-c2ccccc2)[nH]c1=O,-0.9,i,0.81,-6,.,.,101
CC(C)=CCN1CCN(Cc2cc(C(C)C)n[nH]2)CC1CCO (configuration not stated),.,i,0.92,-3,.,.,102
COc1ccc2oc(=O)c(C(=O)NCc3ccco3)cc2c1,.,i,0.93,0,.,.,95
CCC(=O)N(Cc1cc2cc(C)c(C)cc2[nH]c1=O)C1CCCCC1,-0.2,i,0.9,8,36,97,97
COc1ccccc1NC(=O)Nc1nc(C(C)(C)C)cs1,.,i,0.98,-1,4,123,104
CCOc1ccccc1-n1nnnc1SCC(=O)NC(=O)NCc1ccco1,-2.2,i,1,2,.,.,97
CCN1C(=O)c2cccc3c(S(=O)(=O)NCCCN4CCOCC4)ccc1c23,-1.9,i,1,3,14,107,98
CCN1CCN(c2nc3c(c(=O)n(C)c(=O)n3C)n2Cc2cccc3ccccc23)CC1,-0.9,i,0.83,-11,-362,56,97
NCCc1nnc(SCc2ccccc2Cl)o1,.,i,1.1,.,.,.,102
O=C(CCS(=O)(=O)c1ccccc1Cl)Nc1ccc(S(=O)(=O)Nc2ncccn2)cc1,.,i,1.1,.,.,.,106
CNC(=S)N/N=C/c1c(C)cccc1Cl,.,i,0.94,.,.,.,100
CCn1c(CCNC(=O)c2ccc(OC)cc2)nnc1SCC(=O)Nc1ccccc1F,.,i,1,2,-10,42,102
O=C(N/C(=C\c1cccnc1)c1nc2ccccc2[nH]1)c1cccc(Br)c1,-0.2,i,0.92,4,-6,122,103
CCC(C)(C(=O)NC1CCCC1)N(C)C(=O)c1ccccn1 (configuration not stated),.,i,1.1,2,27,78,98
COc1ccc(S(=O)(=O)CCC(=O)NCCc2cccc(C)c2)cc1,-0.1,i,0.91,-2,.,.,102
COc1cc(-n2nnnc2SCC(=O)N2CCN(c3ccc(F)cc3)CC2)c(OC)cc1Cl,-0.3,i,0.86,-3,-68,60,102
CCOC(=O)C1(C)Oc2ccc(S(=O)(=O)CC)cc2NC1=O (configuration not stated),.,i,0.82,4,46,74,96
CNC(=O)CSc1nnc(-c2ccccc2)n1C,.,i,1,-1,-50,82,102
Cc1ccc(NC(=S)NCc2cccn2C)cc1,0.1,i,0.86,3,-8,107,89
CCOc1ccc2nc(NCCNC(=O)Nc3ccccc3)c(C#N)cc2c1,2.5,i,1,-6,.,.,100
CCS(=O)(=O)N1Cc2ccccc2CC1C(=O)Nc1nc2ccccc2s1 (configuration not stated),-1.3,i,0.91,-12,15,118,92
COc1cc(OC)cc(C(=O)NNC(=O)Cc2ccc(OC)c(S(=O)(=O)N3CCOCC3)c2)c1,-0.5,i,1.3,-4,.,.,100

# Shown as tab-separated lines: 21 of the compounds above.
Molecule	GALR2 agonist	HSV augment	HSV augment primary fold	PKD1 inh	Insulin prom inh	Insulin prom inh cell count	RGS16-Gao HTS
CC(C)=CCN1CCN(Cc2cc(C(C)C)n[nH]2)CC1CCO (configuration not stated)	.	i	0.92	-3	.	.	102
COc1ccc2oc(=O)c(C(=O)NCc3ccco3)cc2c1	.	i	0.93	0	.	.	95
CCC(=O)N(Cc1cc2cc(C)c(C)cc2[nH]c1=O)C1CCCCC1	-0.2	i	0.9	8	36	97	97
COc1ccccc1NC(=O)Nc1nc(C(C)(C)C)cs1	.	i	0.98	-1	4	123	104
CCOc1ccccc1-n1nnnc1SCC(=O)NC(=O)NCc1ccco1	-2.2	i	1	2	.	.	97
CCN1C(=O)c2cccc3c(S(=O)(=O)NCCCN4CCOCC4)ccc1c23	-1.9	i	1	3	14	107	98
CCN1CCN(c2nc3c(c(=O)n(C)c(=O)n3C)n2Cc2cccc3ccccc23)CC1	-0.9	i	0.83	-11	-362	56	97
NCCc1nnc(SCc2ccccc2Cl)o1	.	i	1.1	.	.	.	102
O=C(CCS(=O)(=O)c1ccccc1Cl)Nc1ccc(S(=O)(=O)Nc2ncccn2)cc1	.	i	1.1	.	.	.	106
CNC(=S)N/N=C/c1c(C)cccc1Cl	.	i	0.94	.	.	.	100
CCn1c(CCNC(=O)c2ccc(OC)cc2)nnc1SCC(=O)Nc1ccccc1F	.	i	1	2	-10	42	102
O=C(N/C(=C\c1cccnc1)c1nc2ccccc2[nH]1)c1cccc(Br)c1	-0.2	i	0.92	4	-6	122	103
CCC(C)(C(=O)NC1CCCC1)N(C)C(=O)c1ccccn1 (configuration not stated)	.	i	1.1	2	27	78	98
COc1ccc(S(=O)(=O)CCC(=O)NCCc2cccc(C)c2)cc1	-0.1	i	0.91	-2	.	.	102
COc1cc(-n2nnnc2SCC(=O)N2CCN(c3ccc(F)cc3)CC2)c(OC)cc1Cl	-0.3	i	0.86	-3	-68	60	102
CCOC(=O)C1(C)Oc2ccc(S(=O)(=O)CC)cc2NC1=O (configuration not stated)	.	i	0.82	4	46	74	96
CNC(=O)CSc1nnc(-c2ccccc2)n1C	.	i	1	-1	-50	82	102
Cc1ccc(NC(=S)NCc2cccn2C)cc1	0.1	i	0.86	3	-8	107	89
CCOc1ccc2nc(NCCNC(=O)Nc3ccccc3)c(C#N)cc2c1	2.5	i	1	-6	.	.	100
CCS(=O)(=O)N1Cc2ccccc2CC1C(=O)Nc1nc2ccccc2s1 (configuration not stated)	-1.3	i	0.91	-12	15	118	92
COc1cc(OC)cc(C(=O)NNC(=O)Cc2ccc(OC)c(S(=O)(=O)N3CCOCC3)c2)c1	-0.5	i	1.3	-4	.	.	100

# Next compounds
SMILES,GALR2 agonist,HSV augment,HSV augment primary fold,PKD1 inh,Insulin prom inh,Insulin prom inh cell count,RGS16-Gao HTS
Cc1cc(NC(=O)CSc2ncnc3sccc23)no1,.,i,0.88,5,.,.,93
Cc1c(Cl)cccc1NC(=O)CCCCCN1C(=O)CCC1=O,-0.8,i,0.96,-8,-5,121,105
Cc1ccc(CCN2C(=O)CCC2(C)C(=O)NC2CCCC2)cc1 (configuration not stated),-0.8,.,.,-9,-15,67,77
Cc1ccccc1C(=O)NC1CCN(CC(=O)Nc2nccs2)CC1,-3.0,i,1.1,-13,24,100,106
N#Cc1c(-c2ccc(Cl)cc2)ccn2nc(C3CCCCC3)nc12,-2.5,i,1,-9,-22,133,101
CCN(CC)c1ccc(NS(=O)(=O)c2ccc3c(c2)oc(=O)n3C)c(C)c1,-0.3,i,0.94,-7,.,.,104
Fc1ccc(Nc2nc3ccccc3s2)cc1,.,i,0.94,2,58,144,107
CCCc1cc(=O)oc2cc(OCc3cc(OC)c(OC)c(OC)c3)c(Cl)cc12,0.2,i,1.1,3,36,117,113
CSCC[C@H](NC(=O)OC(C)(C)C)C(=O)N/N=C/c1cccc2cccnc12,.,i,0.75,.,.,.,105
Clc1ccc(-c2cc(COc3ccc4ccccc4c3)no2)cc1,0.3,.,.,11,0,139,106
CCCCOCCCNC(=O)Cc1ccccc1OC,-0.5,i,0.95,-5,36,146,100
CC(C)(C)c1cccc(C2(O)C(=O)c3ccccc3C2=O)c1O,.,i,0.97,.,.,.,101
COc1cccc(NC(=O)C2CCCN(S(=O)(=O)c3cccc4nonc34)C2)c1 (configuration not stated),.,i,1,-2,-33,113,101
O=C(COc1cccnc1[N+](=O)[O-])N1CCc2ccccc2C1,.,i,1,-7,.,.,100
C=C(CO)C1Cc2cc(C(C)=O)ccc2O1 (configuration not stated),.,i,1,.,.,.,105
O=S(=O)(C/C(=C/CO)S(=O)(=O)c1ccccc1)c1ccccc1,-0.4,i,0.46,-9,.,.,100
CC1CCN(C(=O)CN(CCc2ccccc2)S(C)(=O)=O)CC1,-0.4,i,0.96,5,5,117,84
Cc1cnc(C(=O)OCC(=O)Nc2cccc(Cl)c2)cn1,0.5,i,0.93,-14,-18,128,99
COc1ccc(/C=C/C(=O)N2CCCC2)cc1OC,.,i,0.92,8,-64,146,106
COc1ccccc1NC(=S)NCc1cccnc1,-0.1,i,0.99,-2,25,136,51
COc1ccc(C2C=C(C34CC5CC(CC(C5)C3)C4)NC(=S)N2)cc1 (configuration not stated),-1.2,i,0.82,4,.,.,108
O=C(/C=C/c1cccc(Cl)c1)Nc1ncccn1,-1.8,i,0.85,-10,.,.,101

# Screening results as filed in PubChem.
